From PubChem BioAssay
LASV entry inh – Lassa virus entry inhibition; hit rate 4.1% among 18,000; Potency, µM (highest dose often 49.2 µM), without a hit: at the highest dose activity change, negative = inhibition, actives largely listed as inhibitors; Lassa virus pseudotyped entry inhibition, cell-based qHTS; control for the full effect not named in the record; many of its hits are not listed in these tables; active = well fitted inhibition curve with a large enough effect; inconclusive = small, poorly fitted or top-dose-only effect; inactive = no such curve, though single readings can be large or run the other way; tested in HEK293 cells; further: luciferase read-out
MARV entry inh – Marburg virus entry inhibition; hit rate 6.5% among 18,000; Marburg virus pseudotype entry/binding inhibition, cell-based; control for the full effect not named in the record; many of its hits are not listed in these tables; Potency, µM (top dose mostly 49.2 µM), for the others: at the highest dose activity change, negative = inhibition, most hits filed as inhibitors; active means well fitted inhibition curve with a large enough effect; inconclusive means small, poorly fitted or top-dose-only effect; inactive means no such curve, though single readings can be large or run the other way; tested in HEK293 cells; further: luciferase read-out
* = called active by the depositor; ? = inconclusive; . = not tested or not shown; & = joins results of further samples; [ ] = another dose, or the depositor's remark. On the % scale 0 is the no-effect control and ±100 the full control effect; potency means the concentration at half of the fitted maximal effect.

| No. | SMILES | LASV entry inh | MARV entry inh |
| --- | --- | --- | --- |
| 1 | COc1ccc(/C=C/C(=O)N2CCc3c(cnc(C)c3CNS(=O)(=O)c3cccs3)C2)cc1 | -25.8% | 3.4% |
| 2 | C#Cc1cccc(C(=O)NCc2nc(-c3cccc(NC(=O)c4ccccn4)c3)oc2C)c1 | -5.8% | 27.3% |
| 3 | COCCN1C(=O)N[C@@H](c2cccc(C(F)(F)F)c2)[C@H](C(C)=O)[C@H]1C | -24.9%[8.59 µM] | -0.9%[8.59 µM] |
| 4 | O=C(Nc1ccccc1)Nc1ccccc1 | 39.7%[activator] | 41.8%[activator] |
| 5 | CCCCn1c(C)cc2c(c1=O)[C@H]1O[C@](c3ccsc3)(Cc3cc(OC)c(OC)cc31)O2 | 4.3%&-27.8%[8.59 µM] | ? |
| 6 | O=C(OCc1cn([C@H]2C[C@H](c3ccc(Cl)cc3)N(Cc3cccs3)C[C@H]2O)nn1)c1ccccc1 | -23.4% | ? |
| 7 | C[C@@H]1CC[C@H]2C(=O)N(Cc3ccc(Cl)cc3)C[C@@H](O)CN2[C@@H]1c1ccc(Br)cc1 | -1.6%[8.59 µM] | -14.8%[8.59 µM] |
| 8 | C[C@@H]1Oc2ccccc2C=C1/C=C/C(=O)O | -11.3% | -0.6% |
| 9 | O=C(c1ccc(F)cc1)C1CCN(CCn2c(=S)[nH]c3ccccc3c2=O)CC1 | -10.3% | ? |
| 10 | CCCCCCC(C)(C)c1cc(OC)c2c(c1)OC(C)(C)[C@@H]1CC=C(C)C[C@@H]21 | -18.6% | 5.3% |
| 11 | COC(=O)C1=NOC2(C=C(Br)C(OC)=C(Br)C2=O)C1 (stereo unspecified) | . | -41.8%[8.59 µM] |
| 12 | CCOC(=O)C1=NO[C@@]2(C=C(Br)C(=O)[C@H]3O[C@H]32)C1 | -19.1% | ? |
| 13 | CCCCCCCCCCCCC/C=C/[C@@H](O)[C@H](CO)N(C)C | 15.6%&-4.2% | 7.5%&1.5% |
| 14 | CCN1C(=NCc2ccc3c(c2)OCO3)NC(c2ccccc2)C(C(=O)OC)=C1C (stereo unspecified) | -3.6%[8.59 µM] | -18.1%[8.59 µM] |
| 15 | COc1cccc(OC)c1CN1CCC2(CCC(CNC(=O)c3ccccc3)O2)CC1 (stereo unspecified) | -24.7% | 3.7% |

The final two entries of the section before come first, to join the parts:
| No. | SMILES | LASV entry inh | MARV entry inh |
| --- | --- | --- | --- |
| 14 | CCN1C(=NCc2ccc3c(c2)OCO3)NC(c2ccccc2)C(C(=O)OC)=C1C (stereo unspecified) | -3.6%[8.59 µM] | -18.1%[8.59 µM] |
| 15 | COc1cccc(OC)c1CN1CCC2(CCC(CNC(=O)c3ccccc3)O2)CC1 (stereo unspecified) | -24.7% | 3.7% |
| 16 | CC1COc2ccccc2C1=O (stereo unspecified) | -9.5% | -8.1% |
| 17 | CC[C@H](C)[C@H](N)C(=O)N[C@@H](CCCCN)C(=O)N[C@H](C(=O)N[C@@H](C)C(=O)N[C@H](C(=O)O)C(C)C)C(C)C | 4.4% | 7.7% |
| 18 | Cc1c(C(=O)N2CCCCCC2)sc2ncnc(NCC3CCCO3)c12 (stereo unspecified) | -16.3% | 9.7% |
| 19 | CCCCC/C=C\C/C=C\C/C=C\C=C\[C@@H](O)CCCC(=O)O | -12.1%&-12.8% | 31.4%&-1.2% |
| 20 | C=CCSSCC=C | 12.9% | -2.3% |
| 21 | CC(C)C[C@H](CO)NS(=O)(=O)c1cccc(Cl)c1F | 6.3% | 84.8%[activator] |
| 22 | NC(=O)CC[C@@H](N)C(=O)O | 2.1% | 5.1% |
| 23 | COc1ccc([C@]23Cc4cc(OC)c(OC)cc4[C@H](O2)c2c(c4ccccc4oc2=O)O3)cc1 | 22.5%[8.59 µM] | 5.0%[8.59 µM] |
| 24 | Cc1ccc(-c2ccnc(-n3ncc(C(=O)N4CCCCC4c4cccnc4)c3C3CC3)n2)o1 (stereo unspecified) | -2.4% | -29.4% |
| 25 | O=c1cc(-c2ccccc2Cl)oc2cccc(O)c12 | -7.8% | 4.6% |
| 26 | C#CC[C@@]1(C(=O)OC)C=C[C@@H](C)[C@H](c2ccccc2Br)N1C(=O)C(F)(F)F | 12.5%[8.59 µM] | -2.1%[8.59 µM] |
| 27 | O=C(NCCc1ccccc1)c1ccc(-c2ccccc2Cl)o1 | 6.9% | 39.1%[activator] |
| 28 | COc1cccc(-c2nc3cc4c(cc3cc2CN(C(=O)c2cc(C)nn2C)C2CC2)CCC4)c1OC | ? | ? |
| 29 | O=C(OC[C@H]1O[C@@H](OC(=O)c2cc(O)c(O)c(OC(=O)c3cc(O)c(O)c(O)c3)c2)[C@H](OC(=O)c2cc(O)c(O)c(OC(=O)c3cc(O)c(O)c(O)c3)c2)[C@@H](OC(=O)c2cc(O)c(O)c(OC(=O)c3cc(O)c(O)c(O)c3)c2)[C@@H]1OC(=O)c1cc(O)c(O)c(OC(=O)c2cc(O)c(O)c(O)c2)c1)c1cc(O)c(O)c(OC(=O)c2cc(O)c(O)c(O)c2)c1 | 10µM* | 0.353µM* |
| 30 | C=CCCC1CN(Cc2ccc(OC)cc2)S(=O)(=O)c2c(cccc2N2CCCC2)O1 (stereo unspecified) | -13.4% | -13.1% |
| 31 | CC(C)(C)OC(=O)NCCCC1=CC2=CC(=O)C(C)(O)C(=O)C2=CO1 (stereo unspecified) | 8.7% | 16.4% |
| 32 | COc1cc(C2CC(=O)Oc3cc(O)ccc32)cc(OC)c1OC (stereo unspecified) | -14.2% | 3.9% |
| 33 | CCCC[C@@H](C=O)NC(=O)[C@H](CC(C)C)NC(=O)OCc1ccccc1 | 20µM* | ? |
| 34 | COc1ccccc1[C@@H]1C(c2cccc(Cl)c2)=NN(c2ccc(Br)cc2)[C@H]1C(=O)N1CCOC1=O | -15.2% | 4.9% |
| 35 | O=S1(=O)CC(N2CCC(Cc3ccccc3)CC2)CN1Cc1ccccc1 (stereo unspecified) | -15.1% | 2.7% |
| 36 | CS(=O)(=O)Nc1cccc(-c2nc(N3CCNCC3)c3ccccc3n2)c1 | 14.9% | ? |
| 37 | COc1ccc(CNC(=O)C2CCCN2c2nc(C)c3ccccc3n2)cc1 (stereo unspecified) | -26.4% | -9.5% |
| 38 | NC(C(=O)O)c1cccc(O)c1 (stereo unspecified) | 8.2% | 0.3% |
| 39 | O[C@@H]1CO[C@H]2[C@@H]1OC[C@@H]2O | -3.2% | -9.6% |
| 40 | CN1C2CC3CC1C(O3)C2O (stereo unspecified) | 2.6% | ? |
| 41 | C#CCN1Cc2ccccc2Oc2cc(Br)ccc2S1(=O)=O | 17.4%&24.0% | ? |
| 42 | Cc1cc(O)c(C=O)c2c1C(=O)Oc1c(COC(=O)/C=C/C(=O)O)c(O)c(C(=O)O)c(C)c1O2 | 2.5% | -9.3% |
| 43 | CC1(OC(=O)c2ccco2)C(=O)C=C2C=C(c3ccsc3)OC=C2C1=O (stereo unspecified) | -0.4% | -4.6% |
| 44 | CCOc1cccc(CN2CCC(n3cc(C(=O)N4CCCCC4)nn3)CC2)c1O | 3.1% | -21.3% |
| 45 | CCC1(c2ccccc2)C(=O)N(COC)C(=O)N(COC)C1=O | -8.8% | 24.9% |
| 46 | COc1ccc(CNc2nc(-c3ccccc3OC)nc3ccccc23)c(OC)c1 | ? | ? |
| 47 | CC(C)C(NC(=O)C(Cc1ccc(O)cc1)NC(=O)C(NC(=O)C(F)(F)F)C(C)C)C(=O)O (stereo unspecified) | 3.6% | 11.2% |
| 48 | COc1cc(=O)n2c(c1C(=O)N(C)Cc1cscn1)CCN(Cc1ccc3c(c1)OCCO3)CC2 | -2.5% | 17.8% |
| 49 | O=c1[nH]c2sccc2c2ccccc12 | -18.2% | -0.4% |
| 50 | CC(=O)c1ccc(OCc2cn(CC(=O)c3ccc(O)cc3)nn2)c(F)c1 | -21.3% | 6.9% |
| 51 | O=[N+]([O-])c1ccc(/C=N\O)o1 | -1.6% | 15.8% |
| 52 | O=S1(=O)CC(N2CCC(Cc3ccccc3)CC2)CN1Cc1ccc(F)cc1 (stereo unspecified) | -10.9% | -29.5% |
| 53 | CCOC(=O)[C@@]1([C@@H](NC(=O)OC)c2cccc(C)c2)CCCC1=O | 9.4%[8.59 µM] | 26.0%[8.59 µM] |
| 54 | Clc1cccc(N2CCNCC2)c1 | -3.2%&4.3% | -8.6%&-19.7% |
| 55 | COC([CH2][Hg])CNC(=O)c1ccccc1OCC(=O)O (stereo unspecified) | ? | ? |
| 56 | O=P(O)(O)C(Cl)(Cl)P(=O)(O)O | 5.1% | 11.4% |
| 57 | COc1ccc2cc1Oc1ccc(cc1)CC1c3cc(c(OC)cc3CCN1C)Oc1c(OC)c(OC)c(OC)c3c1C(C2)N(C)CC3 (stereo unspecified) | ? | 10µM* |
| 58 | C[C@H](N)[C@H](O)c1cccc(O)c1 | -2.7%[17.8 µM] | 1.4%[17.8 µM] |
| 59 | COc1ccc(O[C@H]2C=C[C@@H](c3ccccc3)O[C@H]2COC(=O)CCC(C)=NO[C@H](C)CN2CCCc3nc(C)c(C)cc32)cc1 | 3.5%[8.59 µM] | -24.2%[8.59 µM] |
| 60 | Cc1c(O)c(=O)n(-c2ccccc2)n1C | -4.0%[17.8 µM] | 1.9%[17.8 µM] |
| 61 | CC(C)(C)NC[C@H](O)COc1ccccc1C1CCCC1 | ? | 7.94µM* |
| 62 | COc1cc(=O)n2c(c1C(=O)N(C)Cc1nonc1C)CCN(C(=O)c1cc(C)ccc1C)CC2 | -7.6% | -1.2% |
| 63 | O=C1CC(c2ccc(O)cc2)Oc2cc(O)cc(O)c21 (stereo unspecified) | -1.9%&9.8% | 41.5%&65.1%[activator] |
| 64 | C=CCc1ccccc1OCC(O)CNC(C)C (stereo unspecified) | 1.1%&2.8%&9.0% | 11.2µM* |
| 65 | O=c1oc2ccccc2cc1O | 1.5% | 8.0% |
| 66 | N#CCC(=O)NN | 10.8% | 18.6% |
| 67 | COc1ccc2c(-c3ccnc(Nc4cccc(OC(F)(F)F)c4)n3)cnn2n1 | . | ? |
| 68 | COc1ccc(-c2c(C)cc3oc(=O)cc(-c4ccccc4)c3c2C)cc1F | 8.7% | 0.6% |
| 69 | Cc1ccc(S(=O)(=O)N[C@@H]2COC(=O)[C@@H](C)COC(=O)CC=C[C@H]2C)cc1 | -3.7%[8.59 µM] | 7.3%[8.59 µM] |
| 70 | Cc1ccc2c(-c3ccnc(Nc4ccccc4)n3)c(-c3ccc(F)cc3)nn2n1 | ? | 3.53µM* |
| 71 | COc1c(C(C)C)oc2cc3oc(=O)ccc3cc12 | -1.7% | 5.9% |
| 72 | CN1CCCC(=C(c2cccs2)c2cccs2)C1 | -0.7% | -12.3% |
| 73 | Nc1cccc2c(N)cccc12 | -6.8%[107 µM] | 3.0%[107 µM] |
| 74 | CCCCC[C@H](O)/C=C/[C@H]1C(=O)C[C@H](O)[C@@H]1C/C=C\CCCC(=O)O | -21.6%&-19.4% | -11.0%&0.1% |
| 75 | c1cnc2c(-c3nccc4c3[nH]c3ccccc34)cccc2c1 | -7.6% | -12.4% |

4 of these compounds in a different format.
65	O=c1oc2ccccc2cc1O
  LASV entry inh: 1.5%; MARV entry inh: 8.0%

66	N#CCC(=O)NN
  LASV entry inh: 10.8%; MARV entry inh: 18.6%

67	COc1ccc2c(-c3ccnc(Nc4cccc(OC(F)(F)F)c4)n3)cnn2n1
  LASV entry inh: .; MARV entry inh: ?

68	COc1ccc(-c2c(C)cc3oc(=O)cc(-c4ccccc4)c3c2C)cc1F
  LASV entry inh: 8.7%; MARV entry inh: 0.6%

More compounds
| No. | SMILES | LASV entry inh | MARV entry inh |
| --- | --- | --- | --- |
| 76 | CC[N+](CC)(CC)CCOC(=O)C(C1CCCC1)C1CCCC1 | -7.2% | 1.8% |
| 77 | N[C@@H](Cn1cc(I)c(=O)[nH]c1=O)C(=O)O | -17.2% | 2.2% |
| 78 | Cc1ccc([C@H]2C[C@H](n3cc(C4CC4)nn3)[C@@H](O)CN2Cc2cccs2)cc1 | ? | ? |
| 79 | CC1=C(/C=C/C(C)=C/C=C/C(C)=C/C=C/C=C(C)/C=C/C=C(C)/C=C/C(=O)[C@]2(C)CC(O)CC2(C)C)C(C)(C)CC(O)C1 (stereo partly specified) | 5.8% | 8.1% |
| 80 | COc1cc(OC)c2c(=O)c(O)c(-c3ccc(OC)c(OC)c3)oc2c1 | -7.8% | 58.6%[activator] |
| 81 | CCCCCCCC1=Cc2ccccc2C(CC(C)=O)N1C(=O)OC (stereo unspecified) | ? | 4.1%&13.3%[8.59 µM] |

Another view of part of the listing above.
Values run as follows: LASV entry inh | MARV entry inh
[76] CC[N+](CC)(CC)CCOC(=O)C(C1CCCC1)C1CCCC1
    -7.2% | 1.8%
[77] N[C@@H](Cn1cc(I)c(=O)[nH]c1=O)C(=O)O
    -17.2% | 2.2%

Not all compounds are listed; count on the stated rates, not on these rows.
